PABP FP inh – blocks human PABP binding to poly(A) RNA; actives 1% (n = 290,000); inhibition, % at 35 µM; fluorescence polarization;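 active = 50% or more with normal probe brightness, or confirmed in later tests; inconclusive = above 50% with abnormal brightness, or retests that disagree; inactive = below 50% or failed in later tests; about a fifth of its hits are not listed in these tables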;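 note: calls also rest on retests at 20 µM and on dose response follow-up; controls were probe without protein and protein plus probe with vehicle; some compounds called inactive have numbers as strong as hits; many hits fall short of the cut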
Target sequence (P11940 whole entry, looked up): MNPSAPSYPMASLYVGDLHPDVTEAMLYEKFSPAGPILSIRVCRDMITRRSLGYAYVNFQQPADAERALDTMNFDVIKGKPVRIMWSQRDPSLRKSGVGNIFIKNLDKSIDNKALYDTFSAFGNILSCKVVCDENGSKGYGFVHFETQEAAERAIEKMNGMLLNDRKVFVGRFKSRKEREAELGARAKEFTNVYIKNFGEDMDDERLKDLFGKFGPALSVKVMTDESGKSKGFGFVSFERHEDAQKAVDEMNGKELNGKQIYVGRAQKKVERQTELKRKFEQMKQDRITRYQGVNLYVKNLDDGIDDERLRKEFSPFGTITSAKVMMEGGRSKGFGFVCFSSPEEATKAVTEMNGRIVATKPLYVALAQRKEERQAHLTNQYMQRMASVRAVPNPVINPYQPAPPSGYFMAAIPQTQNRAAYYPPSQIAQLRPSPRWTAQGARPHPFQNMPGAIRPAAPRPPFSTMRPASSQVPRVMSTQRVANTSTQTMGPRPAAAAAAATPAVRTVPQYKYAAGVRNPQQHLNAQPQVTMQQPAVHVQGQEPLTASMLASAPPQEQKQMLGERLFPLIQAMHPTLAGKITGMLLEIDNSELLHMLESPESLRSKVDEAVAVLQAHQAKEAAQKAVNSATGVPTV
HIV Env fusion – blocks HIV Env-driven cell-cell fusion | HeLa-JRFL Env/CEM21 cell fusion, luciferase | inhibition, % at 12.3 µM | actives 1.1% (n = 360,000) | AID 651610;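 active = mean replicate inhibition score of at least 50 and every replicate individually at or above 50; inconclusive = only one of the two criteria met; inactive = mean below 50 and not all replicates reaching 50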;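 note: 0% = plate neutral controls and 100% = maraviroc near 300 nM; one replicate is shown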
Rce1 inh – yeast Ras-converting enzyme inhibition | calls only | AID 2563 | Q03530 | yeast membranes, quenched prenylated peptide cleavage fluorescence | actives 0.27% (n = 290,000);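 active = fall in fluorescence gain of 50% or more versus controls, with final raw signal at or below 3038400; inconclusive = same 50% fall but final raw signal above 3038400; inactive = fall in fluorescence gain under 50%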;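 note: plate controls were neutral control wells for no effect and wells lacking membranes for full effect; tested at 10 µM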
Target sequence (Q03530 whole entry, looked up): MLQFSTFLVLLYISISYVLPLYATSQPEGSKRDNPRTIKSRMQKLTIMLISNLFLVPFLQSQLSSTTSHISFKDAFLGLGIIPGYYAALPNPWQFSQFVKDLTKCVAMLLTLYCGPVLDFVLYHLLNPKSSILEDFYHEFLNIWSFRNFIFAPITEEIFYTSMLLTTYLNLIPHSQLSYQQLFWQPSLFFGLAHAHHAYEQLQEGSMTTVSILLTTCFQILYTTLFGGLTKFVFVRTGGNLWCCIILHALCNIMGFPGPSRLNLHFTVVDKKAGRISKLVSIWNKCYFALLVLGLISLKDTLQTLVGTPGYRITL
MT1-MMP act inh – blocks activation of human MT1-MMP | HT1080 RFP-PRO-GFP cells, GFP/RFP ratio fluorescence, overnight; percent of plate control window, DMSO zero | GFP/RFP ratio change, % at 20 µM | AID 651647 | P50281 | actives 0.061% (n = 360,000);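 active = GFP/RFP ratio change of at least 30% with cell ATP level not reduced by more than half and red fluorescence within 50% of control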; note: strong numbers were not always called active
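Test system: HT1080 cells expressing an RFP-PRO-GFP fluorescent reporter construct / Compound dosing: single-point 20 µM compound, 1% DMSO / Schedule: cells overnight before dosing, compound overnight, 37 °C, 5% CO2 / Evaluation: GFP/RFP fluorescence ratio / Control set: DMSO and RFP-L50D-GFP cell wells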
CSC inhib – blocks cancer stem cells | inhibition, % at 7.5 µM | AID 2717 | actives 1.1% (n = 300,000) | cancer stem cell-like cells viability, luminescence;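 active = mean at 75% or more and at least half the replicates too; inconclusive = mean and replicates disagree; tested in HMLE shEcad cells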;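 note: 0% = median of negative and 100% = median of positive control wells; the first replicate is given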
UUG fidelity – alters start codon recognition fidelity in yeast | activity score, % at 18.7 µM | actives 0.13% (n = 350,000) | S. cerevisiae UUG-firefly luciferase reporter, luminescence/redox ratio;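 active = replicate mean at a twofold rise or more, about +100% in these data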;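 note: firefly luciferase made from a UUG start codon reports start codon fidelity; reporter light over untreated wells divided by growth signal over untreated wells; some hits fall short of that in this replicate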
eIF4H inh – inhibitors of RNA binding by human eIF4H. inhibition, % at 35 µM. actives 0.94% (n = 290,000). AID 2012. eIF4H fluorescence polarization binding assay;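 active = 50% or more with normal probe brightness, or confirmed in later tests; inconclusive = above 50% with abnormal brightness, or retests that disagree; inactive = below 50% or failed in later tests; about a fifth of its hits are not listed in these tables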;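 note: calls also rest on retests at 20 µM and on dose response follow-up; 0% = protein and probe with vehicle and 100% = probe without protein; strong numbers were not always called active; many hits fall short of the cut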
MT1-MMP act inh RFP – also measured in MT1-MMP act inh; calls as there; RFP signal change, %; measured here: RFP expression control read;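 0 = vehicle wells; hits needed this value within 50% of zero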
Starred values were filed as active, the others as inactive; i = inactive; ? = inconclusive; / = not tested or not shown; + = active, no number. Not all compounds are listed. The share of hits here may be higher or lower than overall.

SMILES	PABP FP inh	HIV Env fusion	Rce1 inh	MT1-MMP act inh	MT1-MMP act inh RFP	CSC inhib	UUG fidelity	eIF4H inh
CCOc1ccc(NC(=O)CN(Cc2ccccc2)S(C)(=O)=O)cc1	-10	/	i	4	1	-2	-5	-12
CN(C)CCCN(C(=O)c1cc(-c2cccs2)nc2ccccc12)c1nc2ccc(F)cc2s1	-15	-8	+	-3	-6	103*	4	-3
OCCC1CN(Cc2cccc3c2OCO3)CCN1Cc1ccccc1 (centres undefined)	-12	-7	i	7	1	7	17	-2
O=C1CSC(c2ccccn2)N1Cc1cn2ccccc2n1 (centres undefined)	1	/	/	8	8	15	-20	8
CS(=O)(=O)c1ccc2nc(NC(=O)c3ccc(N4CCCC4=O)cc3)sc2c1	-11	-11	i	4	7	-5	-12	-8
CC1CCC(NC(=O)Cn2c(=O)oc3ccccc32)CC1 (centres undefined)	16	1	i	-1	2	3	-12	3
C/C(=N\NC(=O)CNc1cccc(Cl)c1C)C1CC1	0	-6	i	0	6	-7	/	-1
O=C(N/N=C/c1ccc(Br)o1)c1cccnc1	0	5	i	6	7	0	/	-8
COc1ccc(NC(=O)CCS(=O)(=O)c2ccccc2Cl)cc1S(=O)(=O)Nc1ccc(Cl)cc1	0	5	i	-7	-14	42	/	-10
CC(=O)c1ccc(N2CCN(CC(O)c3ccccc3)CC2)cc1 (centres undefined)	-4	-40	i	2	4	-3	-19	0
COc1cccc(NC(=O)CN(C)C(=O)c2cc3c(s2)CCCCC3)c1	/	1	/	1	2	-6	14	/
O=C(Cn1c(=O)oc2cc(S(=O)(=O)N3CCCCCC3)ccc21)NC1CCCCCCC1	3	3	i	-1	-21	2	-15	18
CC(C)CN(C(=O)c1cccc(Cl)c1)c1c(N)n(Cc2ccccc2)c(=O)[nH]c1=O	/	/	/	-4	-1	0	-20	/
O=C(O)C1CCCCC1C(=O)Nc1ccc2c(c1)OCO2 (centres undefined)	6	-7	i	0	1	/	-14	-7
CCOC(=O)c1sc(Nc2nc(C)cc(C)n2)nc1C	8	43	i	-5	-17	50	/	-10
N/C(=N\OC(=O)c1ccc(Cl)cc1)c1ccn[nH]1	-4	-221	i	5	-1	-9	-71	-5
Cc1ccc(NC(=S)NC(NC(=O)c2ccccc2)C(Cl)(Cl)Cl)c(C)c1 (centres undefined)	4	-20	i	-6	-12	10	-24	-10
Cc1cccc(CSc2nnc(C)c(=O)n2N)c1	6	29	i	11	1	-10	-4	4
Cc1nn(CC(=O)Nc2cccc(C(F)(F)F)c2)c(=O)c2cccn12	-1	12	i	1	2	-11	-16	-2
CCOc1ccc(NC(=O)CN(C)C(=O)c2cc(S(=O)(=O)N(C)C)ccc2N2CCCC2)cc1OCC	/	-25	i	-1	-1	/	18	/
CCCCCN(C(=O)CCC(=O)OCC(=O)c1ccc(F)c(F)c1)c1c(N)n(CCCC)c(=O)[nH]c1=O	/	-15	i	-1	0	-1	14	/
COc1ccc(CNCC(O)(c2ccccc2)c2ccc(F)cc2)cc1 (centres undefined)	-7	5	i	6	2	-4	5	10
CC(OC(=O)Cc1c(F)cccc1Cl)C(=O)NC1(C#N)CCCCC1 (centres undefined)	/	/	i	3	4	-6	-4	/
CCN(CC)CCN(C)c1ccc(N2C(=O)C3CC=CCC3C2=O)cc1[N+](=O)[O-] (centres undefined)	8	-13	i	2	4	-12	-13	12
O=C(O)c1ccc2c(c1)OCCOCCOCCOCCOCCO2	6	-4	i	-2	1	-6	-10	-2
Cc1ccc2c(c1)NC(=O)[C@@]1(C)[C@@H](c3ccccc3)[C@H]3COc4ccccc4[C@@H]3N1C2=O	/	-54	/	-8	-2	17	-16	/
O=C(Nc1cccnc1)c1ccc2c(c1)C(=O)N(Cc1cccnc1)C2=O	-1	-15	i	1	-1	-22	/	-2
CC1(C(=O)Nc2ccc(Cl)c(C(F)(F)F)c2)Cc2c(-c3ccc(C(N)=O)cc3)ccnc2O1 (centres undefined)	/	-3	/	4	-17	/	2	/
O=C(NCc1cccnc1)C(=O)NC1CCCCC1	-2	-3	i	3	3	-17	/	4
COCCN(C(=S)Nc1ccc(OC)c(Cl)c1)C1CCN(C(C)=O)CC1	/	-3	/	0	6	/	-13	/
Cc1c(C(=O)O)oc2c1C(O)CCC2 (centres undefined)	6	-55	i	1	0	-3	4	-8
Cc1ccc(C2CC(C(F)(F)F)n3nc(C(=O)NCc4ccco4)cc3N2)cc1 (centres undefined)	-7	-15	i	-2	-3	8	-12	-1
O=C(N/N=C/c1sc(N2CCOCC2)nc1-c1ccccc1)c1ccccc1Cl	-18	-2	i	-1	-4	-4	-14	-8
Cc1ccccc1-n1cc(CNCc2c(C(=O)N(C)C)nc3ccc(Cl)cn23)cn1	3	13	i	-4	-3	1	/	8
NC(=O)c1ccccc1Nc1nc(NCCO)nc(N2CCCC2)n1	/	-24	i	0	0	-4	-10	/
NNC(=O)CN1CCN(c2ncc(C(F)(F)F)cc2Cl)CC1	2	-1	i	2	-3	-5	/	7
CN1CCN(C2Cc3ccccc3Sc3cc(C(F)(F)F)ccc32)CC1 (centres undefined)	/	23	i	/	/	?	/	/
O=C(COC(=O)CCNS(=O)(=O)c1cccs1)Nc1cc(C(F)(F)F)ccc1Cl	/	8	/	3	2	/	-15	/
CCCCCCCCCCCC(=O)c1c(O)cccc1O	0	/	/	-1	1	-5	-4	4
CS(=O)(=O)c1ccc(C(=O)OCC(=O)N2CCN(CCC3CCCCC3)CC2)cc1[N+](=O)[O-]	/	29	/	-3	-6	/	-4	/
COc1ccc2cc(-c3[nH]ncc3CNCCn3nc(C)cc3C)ccc2c1	-4	-11	i	0	2	1	/	-7
COCC(=O)Nc1ccccc1C#N	3	-17	i	-3	2	-12	-19	-7
CC1=Nc2ccccc2N=C(NC(=O)c2ccccc2)C1c1ccc(Cl)cc1 (centres undefined)	1	69*	i	-6	-7	13	-11	-6
COc1ccccc1Sc1nc(-c2ccccn2)ncc1OC	5	1	i	1	-2	3	/	6
O=C(Nc1ccc(F)c(F)c1)c1cc(S(=O)(=O)N2CCN(c3ccccn3)CC2)ccc1F	5	/	i	0	-12	8	0	-12
CCN(CC)C(=O)CSc1nnc([C@@H](N)Cc2ccccc2)o1	14	20	i	3	-3	-6	-13	5
C=CCn1c(SCC(=O)NCC2CCCO2)nc2sc(C)c(C)c2c1=O (centres undefined)	2	/	i	-2	-1	-4	-7	-19
CC(C)C(=O)Nc1ccc(-c2nc3cccnc3o2)cc1	9	-121	/	-19	1	-9	-39	-11
CN(CC(=O)Nc1ccc(C#N)cc1)CC(=O)Nc1ccc(N2CCOCC2)cc1	4	-8	i	2	3	-5	/	1
CCCC(=O)Nc1c(-c2ccc(C)cc2)c(=O)c2ccccc2n1C	-6	-17	i	-3	0	4	-2	-4
CCN(CC)c1ccc(/C=N/N2CCN(c3ccccn3)CC2)cc1	1	0	i	3	-1	-6	/	-7
CCOc1ccc(CCNC(=O)COC(=O)c2ccc[nH]c2=O)cc1OCC	/	1	/	0	2	-11	-11	/
NNC(=O)c1cccc(COCC(F)(F)C(F)F)c1	-4	5	i	-2	1	0	/	-1
Cc1oc(-c2cccc(F)c2)nc1CN(Cc1ccccc1)C[C@@H]1CCC(=O)N1	-3	-12	i	-9	-6	-2	/	3
COc1nc(Nc2ccc3c(c2)OCO3)nc(OC)n1	2	4	i	2	3	8	-9	-2
CCN(CC)c1ccc(/C=C2/C(=O)c3ccc(C(=O)O)cc3C2=O)cc1	-11	-2	/	-30	6	-3	/	?
Nn1c(SC/C=C/c2ccccc2)nnc1-c1ccncc1	3	26	i	0	-1	-16	/	1
COCc1cc(=O)[nH]c(Nc2nc3ccc(C)cc3o2)n1	-1	/	i	3	-5	/	/	0
CCOc1ccccc1NC(=O)C(OC(=O)c1ccc(O)cc1)c1ccccc1 (centres undefined)	38	18	i	-5	-8	32	1	1
O=C(Cc1ccc(Cl)cc1)Nc1cccc2ncccc12	6	-2	i	2	1	-8	/	-1
Additional entries follow.
SMILES	PABP FP inh	HIV Env fusion	Rce1 inh	MT1-MMP act inh	MT1-MMP act inh RFP	CSC inhib	UUG fidelity	eIF4H inh
CCN1CCN(S(=O)(=O)c2ccc(Cl)c(C(=O)NC3CCCC3)c2)CC1	/	2	i	4	5	-3	-19	/
CCCCNC(=S)NNC(=O)C12CC3CC(CC(C3)C1)C2	5	/	i	1	7	-7	/	-1
CCCC(=O)N(CC(=O)Nc1sc(C)c(C)c1C(N)=O)Cc1ccccc1	-4	-3	i	1	7	-1	/	-6
CC(=O)c1ccc(NC(=O)CCC(=O)N2CC(C)Oc3ccc(C)cc32)cc1 (centres undefined)	5	8	i	-4	-2	-7	-9	-2
CNc1nnc(-c2ccc(C)cc2)c2ccccc12	5	10	/	2	0	-14	/	2
Cc1cc(C)c2c(C)c(C(=O)NCc3ccncc3)oc2c1	8	3	/	-5	-2	-4	-13	-5
O=[N+]([O-])c1ccc(N2CCN(S(=O)(=O)c3ccc(Cl)cc3)CC2)cc1NCc1cccnc1	2	-19	i	2	-5	3	-12	-4
COc1ccc(-n2ncc3c(N4CCC(C(N)=O)CC4)ncnc32)cc1	0	-86	i	2	2	-5	-21	-3
CC(=O)c1cccc(-c2ccnc3c2CC(C(=O)Nc2ccc4c(c2)OCO4)O3)c1 (centres undefined)	/	-4	/	2	-15	/	-8	/
CN1CCN(c2nc3c(c(=O)[nH]c(=O)n3C)n2Cc2ccc([N+](=O)[O-])cc2)CC1	-3	4	i	-4	-2	-7	-1	-8
Cc1cn(S(=O)(=O)c2ccccc2[N+](=O)[O-])cn1	-4	1	i	7	6	-31	/	-7
Cc1cccc(N(C)S(=O)(=O)c2ccc3c(c2)CCC(=O)N3)c1	2	30	i	-2	1	/	5	-3
CCS(=O)(=O)c1ncc(Cl)c(C(=O)Nc2ccc(S(=O)(=O)N3CCCC(C)C3)cc2)n1 (centres undefined)	-3	57*	i	-10	-8	118*	4	0
CC(C)NC(=O)c1ccc(-c2cccc(C(F)(F)F)c2)o1	-9	/	i	-2	-4	-3	-9	-7
Cc1nc2ccc(OC(=O)c3ccccc3)cc2s1	-9	10	i	-2	1	-3	-11	-1
CC(=O)Nc1ccc(NC(=O)c2ccc(NS(=O)(=O)c3cc(C(C)(C)C)cc(C)c3C)cc2)cc1	4	/	i	17	4	31	1	-8
Cc1c(C)c2c(OCC(=O)Nc3cccnc3)cc3c(c2oc1=O)CCC(C)(C)O3	19	/	i	-4	-2	-3	-19	25
COC(=O)c1cc2c(C)nn(C)c2s1	-1	-19	i	-3	3	-2	/	-5
CC(O)CNc1nc(Cl)c(C#N)s1 (centres undefined)	7	-9	i	3	7	-39	/	14
COc1cc(/C=C2\CC/C(=C\c3ccc(OCCO)c(OC)c3)C2=O)ccc1OCCO	6	-2	/	2	3	-2	/	16
O=C(CNCC1CCCO1)Nc1ccc(N2CCCCCC2)cc1 (centres undefined)	13	/	i	10	7	-2	-9	8
Cn1c(CNC(=O)c2ccco2)nnc1SCC(=O)Nc1ccc(Cl)cc1	/	/	i	2	1	13	-29	/
O=C(Nc1cc2c3c(c1)CC(=O)N3CCC2)c1ccc(F)cc1	/	-37	i	-2	5	-7	1	/

Given with two lines to a compound: 2 of the compounds above
Sequence of screens: PABP FP inh | HIV Env fusion | Rce1 inh | MT1-MMP act inh | MT1-MMP act inh RFP | CSC inhib | UUG fidelity | eIF4H inh
- COc1cc(/C=C2\CC/C(=C\c3ccc(OCCO)c(OC)c3)C2=O)ccc1OCCO
→ 6 | -2 | / | 2 | 3 | -2 | / | 16
- Cc1cccc(N(C)S(=O)(=O)c2ccc3c(c2)CCC(=O)N3)c1
→ 2 | 30 | i | -2 | 1 | / | 5 | -3

High-throughput results from PubChem BioAssay.
